Six1-Eya2 inh: Six1/Eya2 interaction inhibition; Q15475+O00167; AlphaScreen GST-Six1/His-Eya2 binding, biochemical; stronger effect = lower value; control for the full effect not named in the record; activity change, % (concentration not given with the values); actives 0.56% (n = 360,000); AID 651725; in the data active = activity change below about -65%; inconclusive = about -30% to -65%; inactive = above about -30%; note: % is set by controls: 0 for no effect and ±100 for the full control effect
Target sequence (O00167 whole entry, looked up): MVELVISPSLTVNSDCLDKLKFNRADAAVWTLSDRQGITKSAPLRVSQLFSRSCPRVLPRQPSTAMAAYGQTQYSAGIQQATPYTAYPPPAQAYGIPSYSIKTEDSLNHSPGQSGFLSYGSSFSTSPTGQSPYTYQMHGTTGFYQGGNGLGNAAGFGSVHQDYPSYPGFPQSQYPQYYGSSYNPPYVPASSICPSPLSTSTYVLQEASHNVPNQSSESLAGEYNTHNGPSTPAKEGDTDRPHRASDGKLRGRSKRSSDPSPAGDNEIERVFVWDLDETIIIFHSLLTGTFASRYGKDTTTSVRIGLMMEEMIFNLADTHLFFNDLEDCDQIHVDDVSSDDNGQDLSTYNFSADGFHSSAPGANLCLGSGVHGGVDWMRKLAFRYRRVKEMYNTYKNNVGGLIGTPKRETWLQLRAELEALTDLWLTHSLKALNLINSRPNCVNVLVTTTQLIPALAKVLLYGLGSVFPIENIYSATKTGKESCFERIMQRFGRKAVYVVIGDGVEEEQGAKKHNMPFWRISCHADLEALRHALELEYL
Target sequence (Q15475 whole entry, looked up): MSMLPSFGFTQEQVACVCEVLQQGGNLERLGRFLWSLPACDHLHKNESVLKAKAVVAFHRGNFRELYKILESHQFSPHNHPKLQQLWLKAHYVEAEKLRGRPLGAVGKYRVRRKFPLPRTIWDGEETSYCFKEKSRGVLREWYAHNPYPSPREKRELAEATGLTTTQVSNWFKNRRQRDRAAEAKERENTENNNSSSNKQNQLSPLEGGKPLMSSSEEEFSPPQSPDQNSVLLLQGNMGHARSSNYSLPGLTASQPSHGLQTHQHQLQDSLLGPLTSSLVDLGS
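AlphaScreen with GST-Six1 and His-Eya2 (5X mix: 250 nM and 500 nM), glutathione donor and nickel acceptor beads; buffer 50 mM Tris pH 8.0, 300 mM NaCl, 1 mM TCEP; 1 h at 37 C in the dark.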
TRPML1 ag: agonists of human TRPML1 channel | AID 624414 | activation, % (no concentration beside the values) | TRPML1-expressing cells, Ca2+ dye fluorescence, FDSS; host cell line not named in the record; reference of the full effect not given here | actives 0.12% (n = 410,000); in the data active = activation above about 50%; inconclusive = about 30% to 50%; inactive = below about 30%; note: 0% is about no effect; the text of the record puts the active cut at 80%
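TRPML1-DL cells, Tet-induced overnight (~16 h, 37 degrees C), loaded 45-90 min at room temperature with Ca8 no-wash calcium dye plus quencher. FDSS fluorescence: 10 s baseline, compound pin-transfer, 110 s agonist read, then EC80 54-4 (4uM final) and 110 s antagonist read.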
PINK1 modulator: modulators of PINK1 expression | PINK1 immunofluorescence, high-content cytometry, 24 h | Potency, µM (top dose mostly 76.6 µM), for inactives: at the top dose activation (PINK1 increase), actives largely listed as activators | actives 0.2% (n = 410,000); active = well fitted activation curve with a large enough effect; inconclusive = small, poorly fitted or top-dose-only effect; inactive = flat fitted curve, though single readings scatter; cell line not stated here;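 note: potency is the fitted concentration of half-maximal effect; % of control where 0% means no effect; nearly all actives have a fitted effect of over 65% in size; a mitochondrial uncoupler was the plate control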
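Fluorescence from anti-PINK1 antibody, together with nuclear and cell stains, was scanned on a laser-scanning cytometer. Before staining, stable-line cells were incubated 24 hours with compounds at 5 concentrations; primary antibody 12 h at 10 degrees C.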
D2 PAM: potentiates the human D2 dopamine receptor allosterically; P14416; DiscoveRx D2 beta-arrestin cells, luminescence, 90 min; 100% = 57 uM dopamine signal; potentiation, % (concentration not given with the values); actives 0.23% (n = 360,000); active = potentiation of 50% or more; inconclusive = 30% to 50%; inactive = 30% or less;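 note: compound concentration not given in the record; tested on top of an EC20 dose of dopamine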
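D2 cells co-treated with compound plus 50 nM dopamine (EC20) for 90 min at 37 deg C to detect potentiation. Beta-arrestin recruitment was read as enzyme-fragment luminescence after 1 h at ambient temperature. Full response was set by 57 uM dopamine.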
D2 ag: activates the human D2 dopamine receptor | actives 0.084% (n = 360,000) | P14416 | activation, % (test concentration not listed) | AID 624465 | DiscoveRx PathHunter D2 beta-arrestin, luminescence, 90 min; 100% = 57 uM dopamine signal; in the data active = activation above about 40%; inconclusive = about 15% to 40%; inactive = below about 15%; note: compound concentration not given in the record; the text of the record calls up to 30% inactive
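DiscoveRx PathHunter D2 beta-arrestin cells (2,100/well) attached overnight, then compound-stimulated 90 min at 37 C in HBSS/10 mM HEPES/0.1% Tween-20 buffer; beta-galactosidase complementation read by luminescence after 1 h at ambient temperature. Dopamine 57 uM final (EC100) as control.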
TRPML1 blocker: inhibitors of human TRPML1 channel. actives 0.02% (n = 390,000). activity change, negative = inhibition, % (concentration not given with the values). TRPML1-inducible cells, Ca2+ dye fluorescence, FDSS; stronger effect = lower value; inhibition of EC80 agonist-evoked calcium signal. Q9GZU1; in the data active means activity change below about -50%; inconclusive means about -30% to -50%; inactive means above about -30%;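 note: stimulus is agonist 54-4 at its EC80 concentration; % is set by controls: 0 for no effect and ±100 for the full control effect; compound concentration not given in the record; the text of the record puts the active cut at -80%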
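TRPML1-DL cells, Tet-induced overnight (~16 h, 37 °C) at 1,500 cells/well, were loaded with Ca8 no-wash dye plus quencher for 45-90 min at room temperature. Compounds were pinned during FDSS kinetic reading; agonist 54-4 at EC80 (4 uM final) then added.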
Starred values were filed as active, the others as inactive; [ ] = another dose, or the depositor's remark.

What do the screens show for `CCOC(=O)c1c(-c2ccc(C)o2)csc1NC(=O)CN1CCCCC1`?
Six1-Eya2 inh: -4; TRPML1 ag: 1.5; PINK1 modulator: inconclusive; D2 PAM: -4; D2 ag: 0.3; TRPML1 blocker: 2

What do the screens show for `Cc1noc(C)c1NC(=O)NC(c1ccccc1)c1ccccc1`?
Six1-Eya2 inh: -3; TRPML1 ag: -0.6; PINK1 modulator: 1.9%; D2 PAM: -2; D2 ag: -0.4; TRPML1 blocker: 2

What do the screens show for `Cc1nn(-c2ccccc2)c2sc(C(=O)NC3CCCCC3)cc12`?
Six1-Eya2 inh: -6; TRPML1 ag: 0.3; PINK1 modulator: 2.7%[38.3 µM]; D2 PAM: -12; D2 ag: -1.5; TRPML1 blocker: 2

What do the screens show for `CC(C)(C)c1ccc(/C=N/NC(=O)C(=O)NCCCN2CCOCC2)cc1`?
Six1-Eya2 inh: 4; TRPML1 ag: -0.5; PINK1 modulator: 3.3%; D2 PAM: -5; D2 ag: -5.7; TRPML1 blocker: -6

How did COc1ccc(N2CCN(C(=O)COC(=O)CCOc3ccc(C)cc3)CC2)cc1 do in these assays?
Six1-Eya2 inh: -5; TRPML1 ag: 0.0; PINK1 modulator: 1.8%; D2 PAM: 2; D2 ag: -0.9; TRPML1 blocker: -3

What do the screens show for `O=C(CN1CCSC1=O)Nc1ccc(N2CCOCC2)cc1`?
Six1-Eya2 inh: 10; TRPML1 ag: 0.6; PINK1 modulator: -2.4%; D2 PAM: -55; D2 ag: -0.1; TRPML1 blocker: 9

Results for CC(=O)C(N=Nc1ccccc1)(Sc1nnc(-c2ccccc2)n1-c1ccccc1)C(C)=O ?
Six1-Eya2 inh: -24; TRPML1 ag: 0.3; PINK1 modulator: -8.4%[38.3 µM]; D2 PAM: 0; D2 ag: -4.3; TRPML1 blocker: 19

How did O=C(CSCc1c(Cl)cccc1Cl)NCc1cccnc1 do in these assays?
Six1-Eya2 inh: -6; TRPML1 ag: -0.5; PINK1 modulator: 0.9%[38.3 µM]; D2 PAM: -3; D2 ag: 0.1; TRPML1 blocker: -7

Results for CCOC(=O)N1CCC(N(CCN(C)C)C(=S)Nc2ccccc2OCC)CC1 ?
Six1-Eya2 inh: 2; TRPML1 ag: -0.2; PINK1 modulator: -0.9%; D2 PAM: -15; D2 ag: -4.8; TRPML1 blocker: 2

What do the screens show for `COc1cc2c(c(OC)c1)C(c1ccncc1)CC(=O)N2` (stereo not given)?
Six1-Eya2 inh: 7; TRPML1 ag: -0.5; PINK1 modulator: -0.1%; D2 PAM: -2; D2 ag: 5.6; TRPML1 blocker: -1

How did c1ccc(OCCCCn2cnc3ccccc32)cc1 do in these assays?
Six1-Eya2 inh: 1; TRPML1 ag: -1.1; PINK1 modulator: 0.6%; D2 PAM: 5; D2 ag: -0.8; TRPML1 blocker: 10

How did C[C@@H]1CN([C@@H](C)CO)C(=O)c2cc(Br)cnc2O[C@@H]1CN(C)C(=O)CN(C)C do in these assays?
Six1-Eya2 inh: 0; TRPML1 ag: 0.0; PINK1 modulator: 4.0%; D2 PAM: -1; D2 ag: -8.8; TRPML1 blocker: 0

What do the screens show for `CN(/N=C/C=C/c1ccccc1)c1cc(=O)n(C)c(=O)[nH]1`?
Six1-Eya2 inh: 2; TRPML1 ag: -1.3; PINK1 modulator: -0.3%; D2 PAM: 7; D2 ag: -7.5; TRPML1 blocker: -1

Results for CCN1/C(=C\C=C2\C(=O)N(C)C(=S)N2C)Sc2ccccc21 ?
Six1-Eya2 inh: -15; TRPML1 ag: 1.2; PINK1 modulator: 2.0%; D2 PAM: -1; D2 ag: 0.4; TRPML1 blocker: 5

Results for CC(C)NC(=O)N(C)C[C@H]1OCCCC[C@@H](C)Oc2ccc(NC(=O)C3CCCCC3)cc2C(=O)N([C@H](C)CO)C[C@@H]1C ?
Six1-Eya2 inh: 6; TRPML1 ag: 0.1; PINK1 modulator: 0.6%; D2 PAM: -4; D2 ag: 0.3; TRPML1 blocker: -6

What do the screens show for `O=C(O)/C(=C\c1ccc(C(F)(F)F)cc1)c1ccc(S(=O)(=O)N2CCCC2)s1`?
Six1-Eya2 inh: 6; TRPML1 ag: 1.9; PINK1 modulator: -2.0%; D2 PAM: -5; D2 ag: -2.9; TRPML1 blocker: 15

Results for CCOC(=O)C1CCN(S(=O)(=O)c2ccc(CC)cc2)CC1 ?
Six1-Eya2 inh: 4; TRPML1 ag: -0.7; PINK1 modulator: 0.3%; D2 PAM: 0; D2 ag: -3.0; TRPML1 blocker: 0

Results for COc1ccc(Nc2ncc3c(n2)CC(c2ccc(OC)cc2)CC3=O)cc1 (stereo not given) ?
Six1-Eya2 inh: -9; TRPML1 ag: 1.2; PINK1 modulator: 3.5%; D2 PAM: -3; D2 ag: -0.7; TRPML1 blocker: 3

How did CCOc1ccc(N=Cc2c(C)[nH]n(-c3nc4ccccc4[nH]3)c2=O)cc1 do in these assays?
Six1-Eya2 inh: 0; TRPML1 ag: 0.1; PINK1 modulator: 15%; D2 PAM: 17; D2 ag: 0.2; TRPML1 blocker: 0

How did COc1cccc(C(=O)Nc2cccc(-c3ccc4nncn4n3)c2)c1OC do in these assays?
Six1-Eya2 inh: inconclusive; TRPML1 ag: 0.1; PINK1 modulator: 4.9%; D2 PAM: 5; D2 ag: 1.9; TRPML1 blocker: -5

Structures above that contain two or more sulfur atoms:
Results for CCN1/C(=C\C=C2\C(=O)N(C)C(=S)N2C)Sc2ccccc21 ?
Six1-Eya2 inh: -15; TRPML1 ag: 1.2; PINK1 modulator: 2.0%; D2 PAM: -1; D2 ag: 0.4; TRPML1 blocker: 5

What do the screens show for `O=C(O)/C(=C\c1ccc(C(F)(F)F)cc1)c1ccc(S(=O)(=O)N2CCCC2)s1`?
Six1-Eya2 inh: 6; TRPML1 ag: 1.9; PINK1 modulator: -2.0%; D2 PAM: -5; D2 ag: -2.9; TRPML1 blocker: 15

Further results:
How did Cc1ccc(S(=O)(=O)NCc2ccccc2)cc1C(=O)NC1CCCCC1 do in these assays?
Six1-Eya2 inh: 28; TRPML1 ag: 0.9; PINK1 modulator: 0.6%; D2 PAM: -18; D2 ag: -3.1; TRPML1 blocker: -17

What do the screens show for `CCOc1ccccc1N(CC(=O)NC1CCCCC1)C(=O)CCC(=O)Nc1cc(C)ccn1`?
Six1-Eya2 inh: -2; TRPML1 ag: -0.3; PINK1 modulator: -0.5%; D2 PAM: -4; D2 ag: -0.8; TRPML1 blocker: 6

How did COc1ccc(N(C)S(=O)(=O)c2cccc(C(=O)N3CCN(c4ccccc4)CC3)c2)cc1 do in these assays?
Six1-Eya2 inh: -9; TRPML1 ag: 2.8; PINK1 modulator: -5.0%; D2 PAM: -21; D2 ag: 2.4; TRPML1 blocker: 35

Results for COC(=O)C1C(c2ccccc2)C=CC(c2ccccc2)C1C(=O)O (stereo not given) ?
Six1-Eya2 inh: 2; TRPML1 ag: 0.9; PINK1 modulator: -1.0%; D2 PAM: 2; D2 ag: 5.5; TRPML1 blocker: 6

What do the screens show for `Cc1ccc(NC(=O)COC(=O)CN2C(=O)NC3(CCCC3)C2=O)cc1F`?
Six1-Eya2 inh: 7; TRPML1 ag: 0.1; PINK1 modulator: 1.8%; D2 PAM: -2; D2 ag: 2.6; TRPML1 blocker: 1

What do the screens show for `COc1cc(C(=O)N2CCCC(c3cc(C(=O)NCc4ccccc4)no3)C2)cc(OC)c1C` (stereo not given)?
Six1-Eya2 inh: -11; TRPML1 ag: -0.9; PINK1 modulator: -0.5%; D2 PAM: -3; D2 ag: 2.4

Results for Cn1ncc2c(NCc3ccc(F)cc3)ncnc21 ?
TRPML1 ag: 1.5; PINK1 modulator: -1.8%; TRPML1 blocker: 10

How did O=C(O)c1cccnc1C(=O)c1ccccc1 do in these assays?
Six1-Eya2 inh: 18; TRPML1 ag: 0.3; PINK1 modulator: -0.4%; D2 PAM: -5; D2 ag: -2.0; TRPML1 blocker: -15

How did CCOc1ccc(NC(=O)C(=O)NCCc2ccccc2)cc1 do in these assays?
TRPML1 ag: -0.4; PINK1 modulator: 0.6%; TRPML1 blocker: -8

Results for O=C(O)CCCNC(=O)/C(=C\c1ccc(Cl)cc1)NC(=O)c1ccccc1Br ?
Six1-Eya2 inh: 2; TRPML1 ag: -0.2; PINK1 modulator: -0.8%; D2 PAM: -3; D2 ag: -3.3; TRPML1 blocker: -10

How did O=C(N/N=C/c1ccc2cccnc2c1)c1nc2ccccc2c(=O)[nH]1 do in these assays?
Six1-Eya2 inh: 6; TRPML1 ag: -0.3; PINK1 modulator: 26%; D2 PAM: -1; D2 ag: -0.9; TRPML1 blocker: 46

Results for CN(CCCNC(=O)c1cccc(N2CCCC2=O)c1)c1ccccc1 ?
Six1-Eya2 inh: -3; TRPML1 ag: -0.7; PINK1 modulator: 1.8%; D2 PAM: -17; D2 ag: -2.6; TRPML1 blocker: -17

Results for COc1ccccc1C=NN=C(N)C(N)=NN=Cc1ccccc1OC ?
Six1-Eya2 inh: -9; TRPML1 ag: 0.5; PINK1 modulator: 16%; D2 PAM: 17; D2 ag: 3.2; TRPML1 blocker: -10

Results for COc1ccc2[nH]c(CN3CCN(CC(C)C)C(CCO)C3)c(C)c2c1 (stereo not given) ?
Six1-Eya2 inh: 15; TRPML1 ag: 0.5; PINK1 modulator: 6.5%; D2 PAM: 0; D2 ag: 1.0; TRPML1 blocker: 5

What do the screens show for `Cc1cccc(CSc2nnc3c(n2)[nH]c2ccccc23)c1`?
Six1-Eya2 inh: 1; TRPML1 ag: 4.9; PINK1 modulator: -0.6%; D2 PAM: 1; D2 ag: 0.3; TRPML1 blocker: 17

What do the screens show for `CC(=O)C1=C(C)Nc2ncnn2C1c1cccc(OCc2ccccc2)c1` (stereo not given)?
Six1-Eya2 inh: 3; TRPML1 ag: -0.6; PINK1 modulator: 0.7%; D2 PAM: -5; D2 ag: -4.0; TRPML1 blocker: 5

How did Cc1noc(NS(=O)(=O)c2ccc(NC(=O)c3ccc(Br)o3)cc2)c1C do in these assays?
Six1-Eya2 inh: 0; TRPML1 ag: -0.2; PINK1 modulator: -1.1%; D2 PAM: 11; D2 ag: -3.2; TRPML1 blocker: -5

How did NC(Cc1ccc(Cl)cc1)c1csc(Nc2ccc(-c3ccccc3)nn2)n1 (stereo not given) do in these assays?
Six1-Eya2 inh: -2; TRPML1 ag: 0.0; PINK1 modulator: 1.0%; D2 PAM: -4; D2 ag: 10

How did O=C1NC(=O)/C(=C/c2cccc([N+](=O)[O-])c2)N1 do in these assays?
Six1-Eya2 inh: -15; TRPML1 ag: 0.9; PINK1 modulator: -0.1%; D2 PAM: inconclusive; D2 ag: 1.4; TRPML1 blocker: -29

What do the screens show for `Cc1c(Cl)cccc1NC(=O)CCn1c(=O)c2cccn2c2ccccc21`?
TRPML1 ag: 3.7; PINK1 modulator: -0.9%; TRPML1 blocker: 16

Assay outcomes (PubChem BioAssay)
